Mtb bLac sens: beta-lactam sensitization of Mtb H37Rv. M. tuberculosis H37Rv growth with meropenem, percent inhibition; hits of this screen are not shown here. inhibition, % at 25 µM. 0.27% of 330,000 active;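 active = about 74% or more and at least 40 points above the plate without the antibiotic, then above 30% in a dose series; inconclusive = first-round hits that could not be retested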;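 note: growth measured after seven days incubation then overnight dye step; 0% = bacteria only wells and 100% = bacteria with antibiotic; twin plates without the antibiotic show which effects depend on it; some results filed as inactive read as strong as hits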
Arbovirus inh: blocks arbovirus infection; arbovirus infection cell-based antiviral screen; inhibition, % at 10 µM; 0.37% of 200,000 active;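 active = inhibition from about 30%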;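 note: bluetongue infection of BSR cells; cell survival read as ATP light after 72 h; 0% = infected wells without compound and 100% = uninfected wells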
Mtb H37Rv: M. tuberculosis H37Rv growth inhibitors, H37Rv strain (AID 1626) | M. tuberculosis H37Rv growth inhibition; higher % means a stronger effect | inhibition, % at 10 µM; hits with a dose series show IC50 in µM | 0.95% of 220,000 active;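 active = confirmed in a dose series; inconclusive = inhibition above 80% but not taken into the dose series; inactive = below 80% or under 30% at every dose of the series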;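 note: bacteria incubated seven days before Alamar blue readout; 0% = bacteria only wells and 100% = bacteria with antibiotic wells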
YopH PTP inh: blocks Yersinia enterocolitica YopH tyrosine phosphatase | fluorescence Ex485/Em525 | AID 898 | 0.16% of 140,000 active | inhibition, %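 (about 10 µM by stock and volumes)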;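 active = inhibition of 50% or more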;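 note: controls were vehicle for no effect and minimum signal wells for full effect; inactives centre near -20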
RecA splice inh: inhibitors of M. tuberculosis RecA intein splicing; cell-free RecA intein splicing, fluorescence; inhibition, %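 (about 9 µM by stock and volumes)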; 0.75% of 290,000 active; in the data active = inhibition above about 30%; inconclusive = no clear call, values can overlap the other calls;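 note: 0% = vehicle wells and 100% = reference inhibitor control wells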
Target sequence (P9WHJ3 whole entry, looked up, canonical isoform): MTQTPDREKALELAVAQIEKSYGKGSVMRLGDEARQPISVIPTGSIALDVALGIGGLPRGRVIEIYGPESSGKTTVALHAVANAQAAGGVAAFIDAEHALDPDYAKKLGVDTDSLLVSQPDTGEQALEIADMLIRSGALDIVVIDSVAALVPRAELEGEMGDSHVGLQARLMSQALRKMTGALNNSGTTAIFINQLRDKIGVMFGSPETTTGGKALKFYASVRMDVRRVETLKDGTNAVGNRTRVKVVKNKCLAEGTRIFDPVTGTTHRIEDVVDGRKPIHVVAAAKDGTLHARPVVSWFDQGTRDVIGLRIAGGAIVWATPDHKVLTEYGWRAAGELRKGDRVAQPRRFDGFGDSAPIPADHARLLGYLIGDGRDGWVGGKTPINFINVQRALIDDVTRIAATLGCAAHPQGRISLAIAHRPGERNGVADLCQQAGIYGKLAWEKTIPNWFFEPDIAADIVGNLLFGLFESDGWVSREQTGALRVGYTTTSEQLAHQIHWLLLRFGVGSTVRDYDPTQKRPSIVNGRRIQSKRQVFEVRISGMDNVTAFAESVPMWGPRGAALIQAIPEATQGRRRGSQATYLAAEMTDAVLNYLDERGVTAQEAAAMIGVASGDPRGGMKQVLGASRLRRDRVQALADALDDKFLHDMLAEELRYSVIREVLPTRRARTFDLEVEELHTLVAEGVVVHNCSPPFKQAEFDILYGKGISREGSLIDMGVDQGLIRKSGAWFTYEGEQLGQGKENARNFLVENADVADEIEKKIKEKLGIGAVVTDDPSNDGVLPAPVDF
Arbovirus inh repeat: further read-out of Arbovirus inh, marked with its call; inhibition, %; measured here: 10K subset replicate screen; many hits read low in the repeat;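 first of two repeat runs on a subset; 0% = infected and 100% = uninfected wells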
Numbers without * were called inactive; ? = inconclusive; . = no result given; & = joins results of further samples.

SMILES	Mtb bLac sens	Arbovirus inh	Mtb H37Rv	YopH PTP inh	RecA splice inh	others
COc1ccc(N(CC(=O)N2CCN(Cc3ccc4c(c3)OCO4)CC2)S(C)(=O)=O)cc1OC	-7	6	-12%	-9	-0.3
O=C1C(=Cc2ccco2)C(=O)c2ccccc21	10	-6	6%	-29	4.5
CCOC(=O)c1cnc2nc(C)[nH]n2c1=O	-6	13	-6%	-43	-2.0
O=C(c1cc2cc(Br)ccc2s1)N1CCOCC1	1	3	1%	.	3.4
S=c1[nH]nc(CSCc2ccc(Cl)cc2Cl)n1-c1ccccc1	3	14	4%	-21	9.1
Cc1ccc(NC(=O)COC(=O)c2cc(Cl)ccc2[N+](=O)[O-])c(C)c1	7	0	-4%	-23	-1.0
CCn1nc(C)c(NC(=O)Nc2cccc(Cl)c2Cl)c1C	6	32*	0%	.	1.0
O=C(CC1NCCNC1=O)Nc1ccc(Cl)c(Cl)c1 (configuration not stated)	6	-2	-4%	-34	2.1
CCN(CC)S(=O)(=O)c1cc(C(=O)OCC(=O)Nc2cccc(Br)c2)ccc1F	10	-2	-7%	-28	0.0
O=C(NCCCCCCNC(=O)C1CCCC1)C1CCCC1	-5	3	-2%	-22	1.2
CCC(C)(NC(=O)c1ccc2c(c1)OCO2)C(=O)NC1CCCCC1 (configuration not stated)	-6	5	3%	.	-4.4
Cc1cccc(C(C)C)c1NC(=O)COC(=O)c1cccc(S(=O)(=O)N2CCc3ccccc3C2)c1	4	-6	2%	-24	-4.1
NC(=O)c1[nH]cnc1N	-2&-8	.	.	.	-2.3&0.8
CCOc1ccc(-c2nnc3ccc(SCC(=O)NCc4ccco4)nn23)cc1	-5	-6	4%	-33	-5.7
O=C(O)c1ccc(OCCOc2ccccc2)cc1	0	.	6%	.	-0.5
COc1ccccc1N(CC(=O)Nc1ccc(C(F)(F)F)cc1)S(C)(=O)=O	-6	-5	1%	.	-4.0
CC(=O)c1cn(N2CCCCC2)c(=O)[nH]c1=O	-7	.	.	.	0.4
Cc1ccc(C2(CC(=O)N3CCCC3)CCOC(C(C)C)C2)cc1 (configuration not stated)	-18	-4	-10%	-17	-3.2
C#CC[N+]1(CC#Cc2ccccc2)CCCCC1	-6	3	0%	.	-2.3
CSc1n[nH]c2nc3c(c(=O)n12)C1(CCCC1)Cc1ccccc1-3	-4	-3	-2%	-21	-20
Cc1c(C(=O)N/N=C/c2ccccc2)[nH]c2c([N+](=O)[O-])cccc12	-10	.	5%	.	8.5
CCOc1ccc(N=Cc2c(O)n(-c3cc(C)cc(C)c3)c(=O)[nH]c2=O)cc1	97	.	<0.2µM*	.	-3.0
COc1cc(C(=O)N2CCC3(CC2)NCCc2[nH]cnc23)cc(OC)c1OC	-2	.	.	.	0.3
Cc1nn(C)c(C)c1C(=O)NN	-8	2	0%	-37	-1.3
CC(=O)N1CCc2c(sc(NC(=O)c3ccc([N+](=O)[O-])o3)c2C#N)C1	.	-28	14%	.	-4.7

Three entries out of the list, sorted by SMILES length, smallest number first:
SMILES	Mtb bLac sens	Arbovirus inh	Mtb H37Rv	YopH PTP inh	RecA splice inh	others
O=C(O)c1ccc(OCCOc2ccccc2)cc1	0	.	6%	.	-0.5
O=C(CC1NCCNC1=O)Nc1ccc(Cl)c(Cl)c1 (configuration not stated)	6	-2	-4%	-34	2.1
CC(=O)N1CCc2c(sc(NC(=O)c3ccc([N+](=O)[O-])o3)c2C#N)C1	.	-28	14%	.	-4.7

(next part)
SMILES	Mtb bLac sens	Arbovirus inh	Mtb H37Rv	YopH PTP inh	RecA splice inh	others
Fc1ccc(C(c2nnnn2C2CCCC2)N2CCN(Cc3ccncc3)CC2)cc1 (configuration not stated)	-2	3	-3%	-41	-3.4
O=C(c1ccc(C(F)(F)F)cc1)c1c[nH]c(C(=O)NCCCn2ccnc2)c1	-22	-11	-7%	20	-4.8
Cc1ccc2[nH]c(=O)c3cc(C(=O)NCCC(C)C)sc3c2c1	5	.	.	.	-3.8
O=C(N/N=C/C=C/c1ccccc1)c1ccccn1	99	.	31%	.	-2.7
CC/C(=N\NC(=S)NC(C)C)c1ccc(OC)c(OC)c1	.	9	-3%	.	-4.0
O=C(NC(=S)Nc1ccc(CN2CCOCC2)cc1)c1ccc([N+](=O)[O-])cc1Cl	6	0	4%	.	0.4
O=C(Nc1cc(-c2nc3ncccc3o2)ccc1Cl)c1cccs1	0	.	.	.	-1.0
O=c1c(Cl)c(Cl)cnn1Cc1ccccc1Cl	93	-41	38%	-11	38*
CCn1c(=S)sc2c(=O)n(CC(=O)Nc3ccccc3)c(C)nc21	3	.	.	.	1.1
COC(=O)[C@@H]1CC[C@H](C)[C@@H](c2ccc(C)cc2)N1C(=O)c1ccc(/C=N/OC[C@@H](O)COCc2ccco2)cc1	.	-24	.	-7	8.0
O=C(/C=C/c1cc(Br)ccc1F)Nc1cccnc1	4	.	.	.	0.8
COCCn1c(=O)c2c(nc3n2CCCN3Cc2ccccc2)n(C)c1=O	-5	.	.	.	-2.1
CC(C)CC1C(C#N)=C(N)SC(N)=C1C#N	0	1	-15%	-53	-4.5
COc1ccc2cc(-c3[nH]ncc3CN3CCCC3c3nonc3C)ccc2c1 (configuration not stated)	2	-25	-7%	.	7.5
CN(C(=O)COC(=O)c1n[nH]c2ccccc12)C1CCS(=O)(=O)C1 (configuration not stated)	11	-1	0%	-40	-1.0
COc1ccc(-c2cc(C(=O)N3CCCCCC3)c3ccccc3n2)c(OC)c1	0	.	.	.	5.8
CC(=O)NC(Cc1cccc(F)c1)C(=O)NC1CCN(c2nnnn2-c2ccccc2)CC1 (configuration not stated)	-6	16	0%	.	-4.5
COc1ccc(N2CCN(Cc3nnc(-c4ccccc4)o3)CC2)cc1	-2	-6	5%	-7	-3.7
COC(=O)c1sc(-c2ccc(C(C)(C)C)cc2)cc1NC(=O)CCC(=O)O	.	.	23%	.	6.6
COc1ccccc1NS(=O)(=O)c1ccc(C(=O)N2CCCC(C)C2)cc1 (configuration not stated)	-12	.	.	.	0.9
CCOC(=O)N1CCN(C(=O)c2cc3c(ccc4ccccc43)oc2=O)CC1	-6	11	-5%	-12	-9.8
COC(=O)[C@@]1(Cc2ccc(F)cc2)[C@H]2c3cc(C(=O)N(C)C)n(Cc4nc5ccccc5[nH]4)c3C[C@H]2CN1C(=O)c1ccccc1	88	-29	76%	-27	.
COc1ccc(NCc2cccnc2)cc1	-2	.	.	.	1.2
COc1ccc(C)cc1NC(=O)CN(C)S(=O)(=O)c1ccc2c(c1)CC(C)N2C(C)=O (configuration not stated)	4	.	.	.	-2.8
COc1cccc(N/C=C/C(=O)c2ccc(Cl)cc2)c1	-3	-3	3%	-29	3.1

Carrying on:
SMILES	Mtb bLac sens	Arbovirus inh	Mtb H37Rv	YopH PTP inh	RecA splice inh	others
CCSc1nnc(-c2ccc(Cl)cc2Cl)o1	88	-8	4%	-14	1.4	Arbovirus inh repeat=-2
CC(C)(C)CC(=O)O/N=C(\N)c1ccncc1	-4	-1	5%	.	-0.2
CCN1C(=O)CCCc2ccccc21	5	-1	4%	.	-0.9
Cc1c(Br)c([N+](=O)[O-])nn1CC(=O)Nc1sc2c(c1C(=O)OC(C)C)CCCC2	24	-13	-3%	-43	2.3
Cn1cnc([N+](=O)[O-])c1NC(C)(C)C	-3	4	-2%	-3	0.4
CCOCCCNC(=O)c1ccc(OC)cc1	-11	3	-3%	-26	0.7
O=C(O)c1ccc(CSc2nnc(-c3ccncc3)n2CC2CCCO2)cc1 (configuration not stated)	-13	4	-7%	-35	-1.2
CN1CCN(S(=O)(=O)c2ccc(C(=O)Nc3ccccc3)cc2)CC1	-5	2	-1%	-22	-0.8
Cc1c(NC(=O)C2CC(c3ccc(F)cc3)=NO2)c(=O)n(-c2ccccc2)n1C (configuration not stated)	-2	1	0%	2	0.4
COCCCn1c(SCC(=O)NC2CCCC2)nnc1-c1ccncc1	-5	.	.	.	0.0
COc1ccc(N2CCN(CC(O)COC(c3ccc(F)cc3)c3ccc(F)cc3)CC2)cc1 (configuration not stated)	80	.	.	.	0.4
Cc1csc(=O)n1CC(=O)OCC(=O)NCc1ccccc1	-3	.	.	.	-0.8
COc1cc(OC)cc(C(=O)NC(=S)NNC(=O)c2cnccn2)c1	-1	-19	-7%	-23	-1.7
O=C(O)c1cccc2c1NC(C(=O)O)C1CC(Sc3ccccc3[N+](=O)[O-])C(Cl)C21 (configuration not stated)	-6	2	-4%	-7	.
O=C(NCC1CCN(Cc2ccc(F)cc2)CC1)Nc1cc(F)ccc1F	-6	.	.	.	0.1
COc1ccc(OC)c(S(=O)(=O)NCCOC23CC4CC(CC(C4)C2)C3)c1	-1	4	-11%	-28	0.7
CN(Cc1ccc(-n2cccn2)cc1)Cc1nc(-c2cnccn2)no1	0	-3	-3%	.	-1.0
COc1ccc(NC(=S)N2CCCC2)c(OC)c1	-7	1	8%	.	-1.0
Cc1ccc(SC[C@H](Cc2ccccc2)N2CC[C@@H](NC(=O)OCc3ccccc3)CCC2=O)cc1	-1	.	.	.	4.9
CC(=O)c1ccc(C(=O)N2CCCC(C(=O)c3cc(F)ccc3F)C2)s1 (configuration not stated)	-14	-2	0%	.	2.4
COc1cc(C(=O)NCc2nnc(SCC(=O)N3CCC(C)CC3)o2)cc(OC)c1OC	-15	6	-6%	-12	-3.3
c1ccc(CCN2CN=C(Nc3nc4ccccc4s3)NC2)cc1	95	.	72%	.	4.7
Cc1noc(C)c1C(=O)OCC(=O)C12CC3CC(CC(C3)C1)C2	-8	3	1%	.	18
Cc1ccc(Oc2nc3ccccc3n3c(C)nnc23)cc1	-19	-1	-4%	-3	-1.5
O=C1N/C(=C/c2ccc(Br)cc2)C(O)=C1C=NCc1ccccc1	-2	-31	3%	-17	-1.9

The list goes on, overlapping the part above by two compounds.
SMILES	Mtb bLac sens	Arbovirus inh	Mtb H37Rv	YopH PTP inh	RecA splice inh	others
Cc1ccc(Oc2nc3ccccc3n3c(C)nnc23)cc1	-19	-1	-4%	-3	-1.5
O=C1N/C(=C/c2ccc(Br)cc2)C(O)=C1C=NCc1ccccc1	-2	-31	3%	-17	-1.9
O=C(c1cc2nc(-c3cccs3)cc(C(F)(F)Cl)n2n1)N1CCCc2ccccc21	14	3	-2%	-49	-0.5
CC(=O)c1ccc(N2CCN(C(=O)c3n[nH]c4ccccc34)CC2)cc1	2	11	4%	.	-0.1
O=C(O)CCCC(=O)Nc1ccc(N=Nc2ccccc2)cc1	-4	-1	1%	.	0.6
CC1CCC2C(=O)N(c3ccc(C(=O)NCc4ccccc4)cc3)C(=O)C2C1 (configuration not stated)	-8	2	-1%	-18	1.9
CCCSc1nc2c(cnn2-c2ccccc2)c(=O)n1N	2	.	.	.	2.3
COc1ccc(C(=O)Oc2ccc(N(C)S(=O)(=O)c3ccccc3)cc2)cc1[N+](=O)[O-]	86	.	.	.	4.8
Cc1ccc(C)c(OCC(=O)NCC(C)C)c1C	2	-3	-4%	-30	-1.0
O=C(NCCN1CCCCC1)Nc1ccc(F)cc1F	-4	.	.	.	0.8
CCC(C)(C)NC(=O)C(c1ccc(F)cc1)N(Cc1ccco1)C(=O)c1cnccn1 (configuration not stated)	1	5	-6%	-47	0.3
COc1cc(CNCc2cccnc2)ccc1OCC(=O)NC1CCCCC1	-6	4	9%	.	4.5
CN(C)S(=O)(=O)c1ccc(N2CCCC2)c(C(=O)Nc2ccc(Br)cc2F)c1	-1	.	.	.	0.3
COc1ccc(-c2nc(-n3c(C)c(C(C)=O)c(C(C)=O)c3C)sc2C)cc1OC	-8	5	1%	-14	-0.2
COc1cc(/C=C/C(=O)OCC(=O)Nc2c(C)n(C)n(-c3ccccc3)c2=O)ccc1O	-3	.	.	.	-2.2
O=C(COC(=O)C1CCCN1C(=O)c1cccs1)Nc1ccc2c(c1)OCO2 (configuration not stated)	-12	4	-7%	-34	-0.8
O=C(CSC1=NCCS1)Nc1ccccc1F	-17	-4	2%	-10	.
CCOC(=O)N1CCN(C/C(C)=C/c2ccccc2)CC1	-4	-4	-4%	-47	-5.0
O=C(N/N=C\c1ccc(Cl)s1)C1COc2ccccc2O1 (configuration not stated)	100	.	?	.	.
CC(C)N(Cc1nnc(-c2ccc(Cl)cc2)o1)C(=O)C1=COCCO1	-3	.	.	.	-1.4
CC(C)NC(=O)CSc1nnc(-c2ccc3ncccc3c2)n1C	-3	.	-2%	.	-2.1
CC(=O)c1ccccc1NC(=O)Cn1c(=O)cnc2ccccc21	-5	4	0%	-42	-0.2
O=C(c1ccc(CNS(=O)(=O)c2ccc(Br)cc2)cc1)N1CCCC1	5	-1	2%	.	-1.4
OCCC1CN(Cc2nc3c(s2)CCCC3)CCN1Cc1ccccc1 (configuration not stated)	-3	.	5%	.	2.0
Cc1ccc(C2=NN(CC(=O)NCCC(C)C)C(=O)CC2)cc1	3	.	.	.	2.0
COc1cc(/C=C/C(=O)OCC(=O)NCc2ccco2)ccc1OCC#N	-3	-2	-7%	.	-0.3

From PubChem BioAssay

These rows are one share of the data. The share of hits here may be higher or lower than overall.
